# TRPML1 agonist: human mucolipin-1 channel agonism; Q9GZU1; TRPML1-expressing cells, Ca2+ dye fluorescence, FDSS; host cell line not named in the record; reference of the full effect not given here; activation, % (concentration not given with the values); 0.12% of 410,000 active; in the data active = activation above about 50%; inconclusive = about 30% to 50%; inactive = below about 30%; further: 0% is about no effect; the text of the record puts the active cut at 80%
# Target sequence (Q9GZU1 whole entry, looked up): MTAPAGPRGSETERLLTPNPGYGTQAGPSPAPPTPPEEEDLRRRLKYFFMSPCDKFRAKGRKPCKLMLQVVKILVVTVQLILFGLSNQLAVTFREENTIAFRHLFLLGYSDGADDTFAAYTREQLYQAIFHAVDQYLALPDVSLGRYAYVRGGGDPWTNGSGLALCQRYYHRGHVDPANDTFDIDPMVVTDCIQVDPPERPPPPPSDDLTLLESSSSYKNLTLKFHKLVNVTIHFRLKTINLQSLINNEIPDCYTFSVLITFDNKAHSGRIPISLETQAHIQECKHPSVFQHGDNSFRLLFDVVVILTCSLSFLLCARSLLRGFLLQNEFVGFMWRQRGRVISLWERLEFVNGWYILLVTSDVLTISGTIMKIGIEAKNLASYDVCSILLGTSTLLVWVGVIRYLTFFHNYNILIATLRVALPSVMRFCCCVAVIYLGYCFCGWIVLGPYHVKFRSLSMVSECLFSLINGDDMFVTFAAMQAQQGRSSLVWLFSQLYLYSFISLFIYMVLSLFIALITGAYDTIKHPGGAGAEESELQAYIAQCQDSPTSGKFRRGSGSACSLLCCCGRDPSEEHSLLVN
#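 Agonist activity was taken from a 110 s kinetic Ca2+ dye read on the FDSS after pinning compounds onto TRPML1-DL cells. The cells were seeded at 1,500/well with Tet inducer, incubated about 16 h, then dye-loaded at room temperature.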
# TRPML1 blocker: human mucolipin-1 channel inhibition; Q9GZU1; TRPML1-inducible cells, Ca2+ dye fluorescence, FDSS; stronger effect = lower value; inhibition of EC80 agonist-evoked calcium signal; activity change, negative = inhibition, % (test concentration not listed); 0.02% of 390,000 active; AID 624415; in the data active means activity change below about -50%; inconclusive means about -30% to -50%; inactive means above about -30%;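 further: stimulus is agonist 54-4 at its EC80 concentration; on the % scale 0 is the no-effect control and ±100 the full control effect; compound concentration not given in the record; the text of the record puts the active cut at -80%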
#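 Calcium fluorescence in TRPML1-DL cells induced overnight with Tet: a 110 s read after compound pin addition, then a 110 s antagonist read after challenge with 54-4 at 4 uM final (EC80).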
# The depositor's hits bear a star; ? = inconclusive. The list is partial; count on the stated rates, not on these rows.
smiles | TRPML1 agonist | TRPML1 blocker
COc1ccc(C(=O)NNc2ncnc3c2cnn3-c2ccc(C)cc2C)cc1 | 1.4 | 4
CCn1cc(C(=O)NCCN(CC(C)C)CC(C)C)c(=O)c2cc(S(=O)(=O)N(C)C3CCCCC3)ccc21 | -1.2 | 25
CCOc1ccccc1NC(=O)Cn1c(=O)n(Cc2ccccc2)c(=O)c2c(C)c(C)sc21 | 2.1 | 11
Cc1cccc(C(=O)Nc2nnc(S(=O)(=O)N(C)Cc3ccc(Cl)cc3)s2)c1 | 2.9 | 13
CCOc1ccccc1NC(=O)Cn1c(=O)n(Cc2ccccc2)c(=O)c2c3c(sc21)CN(C(C)=O)CC3 | -0.7 | 0
COCCNC(=O)Cn1nc(N2CCN(c3ccccc3OC)CC2)ccc1=O | 0.8 | 12
COc1ccc(C2CC(=O)Nc3c2c(=O)n(C)c2nc4ccccc4n32)cc1 (stereo not given) | 3.3 | 12
Cc1cc(N2CCCCC2)nc2ccc(NC(=O)c3cccc(Cl)c3)cc12 | 0.8 | 5
CC1CCCCN1C(=O)CSc1nnc(-c2ccccc2Cl)o1 (stereo not given) | -0.6 | 16
COc1ccc(CCNC(=O)CCCn2c(=O)c3ccccc3n(CC(=O)Nc3cc(Cl)ccc3C)c2=O)cc1OC | -0.4 | -11
Cc1cccc(NC(=O)c2sc3nc(-c4cc5ccc(O)cc5oc4=O)[nH]c(=O)c3c2C)c1 | 112* | ?
CCC(O)c1nc2ccccc2n1Cc1cc(C)ccc1C (stereo not given) | 1.1 | 3
O=C(CN1C(=O)COc2ccc(S(=O)(=O)N3CCCCCC3)cc21)NCc1ccc(Cl)cc1 | 2.4 | -6
Cc1ccccc1Cn1c(=O)n(CCc2ccccc2)c(=O)c2ccccc21 | 0.0 | 1
COc1ccccc1Nc1nn2c(=O)c3ccc(C(=O)Nc4ccc(F)cc4)cc3nc2s1 | 0.2 | 0

# Among those listed so far, eight have four or more nitrogen atoms:
smiles | TRPML1 agonist | TRPML1 blocker
COc1ccc(C(=O)NNc2ncnc3c2cnn3-c2ccc(C)cc2C)cc1 | 1.4 | 4
CCn1cc(C(=O)NCCN(CC(C)C)CC(C)C)c(=O)c2cc(S(=O)(=O)N(C)C3CCCCC3)ccc21 | -1.2 | 25
Cc1cccc(C(=O)Nc2nnc(S(=O)(=O)N(C)Cc3ccc(Cl)cc3)s2)c1 | 2.9 | 13
CCOc1ccccc1NC(=O)Cn1c(=O)n(Cc2ccccc2)c(=O)c2c3c(sc21)CN(C(C)=O)CC3 | -0.7 | 0
COCCNC(=O)Cn1nc(N2CCN(c3ccccc3OC)CC2)ccc1=O | 0.8 | 12
COc1ccc(C2CC(=O)Nc3c2c(=O)n(C)c2nc4ccccc4n32)cc1 (stereo not given) | 3.3 | 12
COc1ccc(CCNC(=O)CCCn2c(=O)c3ccccc3n(CC(=O)Nc3cc(Cl)ccc3C)c2=O)cc1OC | -0.4 | -11
COc1ccccc1Nc1nn2c(=O)c3ccc(C(=O)Nc4ccc(F)cc4)cc3nc2s1 | 0.2 | 0

# Next section:
smiles | TRPML1 agonist | TRPML1 blocker
CCn1c(=O)c2cc(C(=O)N(CCN(C)C)Cc3ccccc3)sc2c2ccccc21 | -0.5 | 6
COc1ccc(NC(=O)Cn2cnc3ccc(S(=O)(=O)N4CCC(C)CC4)cc3c2=O)cc1Cl | 0.4 | 26
O=C(C1CCN(c2ncnc3c2nc2n3CCCCC2)CC1)N1CCN(c2ccc(Cl)cc2)CC1 | 1.9 | -1
Cc1cc(SCC(=O)NCc2ccccc2)nc(=O)[nH]1 | 0.3 | -3
CC1=C(C(=O)Nc2cccc(C(F)(F)F)c2)C(c2ccccc2)n2ncnc2N1 (stereo not given) | -0.2 | -9
Cc1cccc(C(C)C)c1NC(=O)C1CCCN1S(=O)(=O)c1cccc2nsnc12 (stereo not given) | 0.1 | -5
CC(C)Oc1ccc(C(=O)N2CCN(CCc3ccccn3)CC2)cc1 | 0.0 | 5
COc1cc(OC)c(NC(=O)Cn2cnc3c(nc4n3CCCCC4)c2=O)cc1Cl | -0.3 | 1
COc1ccc(CC(=O)NCc2nc3cccnc3n2Cc2ccc(C)cc2)cc1 | -1.1 | -14
COc1ccc(N2CC(NC(=O)Cc3cccs3)CC2=O)cc1OC (stereo not given) | -0.6 | -2
CN1CC(=O)Nc2cc(C(=O)O)ccc21 | 1.0 | 30
Cc1ccc(-n2c3c(c(=O)[nH]c2=O)C(NC(=O)c2ccccc2F)(C(F)(F)F)C(=O)N3)cc1C (stereo not given) | 1.3 | 20
CC(=O)Nc1cccc(C(=O)NCc2ccc3c(c2)CCN3C(=O)c2ccccc2)c1 | 2.5 | 17
Fc1ccc(Nc2c3c(nc4nncn24)CCC3)cc1 | -0.6 | 6
CCCCN(C)c1nnc(NC(=O)Nc2ccc(Br)c(C)c2)s1 | -0.5 | 5
Cc1cccc(C)c1NS(=O)(=O)c1ccc(NS(=O)(=O)c2ccc3c(c2)OCCO3)cc1 | 0.8 | 78
c1ccc(N2CCN(c3ncnc4c3nc3n4CCCCC3)CC2)cc1 | -0.1 | 3
Cc1ccc(-c2nc(C(=O)NCc3ccccc3Cl)c3n2CCCCC3)cc1 | 3.7 | 18
CCCC(=O)N1c2ccccc2-c2nnc(SC)nc2OC1c1sccc1C (stereo not given) | 0.6 | 23
CCOC(=O)c1ccc(CSc2nnc3cc(C)c4ccccc4n23)cc1 | 4.5 | 19
CC(=O)N1c2ccc(S(=O)(=O)N3CCCCCC3)cc2CC1C(=O)NCc1ccccc1C (stereo not given) | -0.7 | -9
COc1ccc(CCN2C(=O)c3[nH]nc(-c4ccccc4O)c3C2c2ccccc2)cc1 (stereo not given) | -0.4 | -7
Cc1cccc(-c2nc3cc(NC(=O)c4ccc(OCC(C)C)cc4)ccc3o2)c1 | 0.7 | 3
Cc1sc(-n2cccc2)c(C(C)NC(=O)Nc2cccc(C(F)(F)F)c2)c1C (stereo not given) | 0.5 | 7
CC1CC=CC2C1C(=O)N(Cc1ccccc1)C2c1ccoc1 (stereo not given) | 2.6 | 1
COC(=O)c1cc2sc(Cl)cc2n1CC(=O)Nc1cc(OC)cc(OC)c1 | -0.1 | 13
CCOC(=O)c1cc(-c2ccccc2)n(CCC(=O)Nc2ccc(C(F)(F)F)cc2)c1C | 10 | -8
COc1cc(C(=O)N2CCN(c3ccc(Nc4ccc(C)cc4)nn3)CC2)cc(OC)c1OC | 1.2 | 15
CCOC(=O)c1c(NC(=O)Nc2ccc(F)cc2)sc(C(=O)N(C)C)c1C | -0.4 | 20
CCCOC(=O)c1c(NC(=O)c2nc3ncccn3n2)sc(C(=O)OCC)c1C | -1.0 | 1
COc1cccc2cc(C(=O)Nc3ccc(C)cc3)c(=O)oc12 | -0.5 | -3
COc1ccc(CC(=O)Nc2sc3c(c2C(=O)Nc2ccc(C)cc2)CCCCC3)cc1 | -0.6 | ?
Cc1ccc(CNC(=O)c2nn(C)c3c2CSc2ccc(C)cc2-3)cc1 | 0.2 | -4
COC(=O)c1cc(NC(=O)CCc2c(C)nc3nc(C)nn3c2C)cc(C(=O)OC)c1 | -0.2 | 12
CCc1ccccc1NC(=O)Nc1nnc(N2CCCC2)s1 | -0.8 | 2
CCC1CN(C(=O)C2CCN(S(=O)(=O)c3c(C)noc3/C=C/c3ccccc3F)CC2)c2cc(C)ccc2O1 (stereo not given) | 0.9 | 22
Cc1ccccc1NC(=O)c1sc2nc3n(c(=O)c2c1C)CCC3 | -0.5 | -13
CN1CCN(c2ncnc3c2cnn3-c2cccc(Cl)c2)CC1 | 0.1 | -3
CCn1c(CN2CCN(C)CC2)nc2cc(NC(=O)c3ccc([N+](=O)[O-])cc3)ccc21 | 0.0 | 26
CCCOc1ccc(NC(=O)CC2C(=O)N(c3ccc(OC)cc3)C(=O)N2CCc2ccncc2)cc1 (stereo not given) | -0.7 | 29
Cc1cc(N2CCN(c3ccc(F)cc3)CC2)n2nc(-c3ccc(Cl)cc3)nc2n1 | -0.6 | -4
COc1ccc(-n2ccnc(NCCc3ccc(S(N)(=O)=O)cc3)c2=O)cc1 | -0.3 | -1
CCC(=O)N1CCc2cc(S(=O)(=O)NC(C(=O)NCCc3cccc(C)c3)C(C)C)ccc21 (stereo not given) | 0.2 | 2
CCN(C(=O)c1noc2c1COc1ccc(C)cc1-2)c1cccc(C)c1 | 1.5 | -5
Cc1ccc(OCc2ccc(-c3nc(C#N)c(NCc4ccccc4Cl)o3)o2)cc1 | 1.6 | -26
Cc1ccccc1CNC(=O)c1cnc2sc(N3CCC(C)CC3)nn2c1=O | -0.5 | -7
COCCn1c(CNC(=O)c2cccc(N(C)C)c2)nc2cccnc21 | -0.6 | -4
CN(c1ncnc2c1c(-c1ccccc1)cn2-c1ccc(F)cc1)C1CCCCC1 | 0.7 | 60
Cn1c(C(=O)Nc2cccc(Cl)c2)cc2c(=O)n(C)c3ccccc3c21 | -0.7 | 0
COc1ccc(-c2nc3cc(C)ccn3c2NC(=O)c2cccc(F)c2)cc1 | 0.1 | 6
Cc1cccc(N2CCN(C(=O)c3ccc4c(Cl)c5c(nc4c3)CCCC5)CC2)c1C | 1.2 | 18
O=C(NCc1ccccc1Cl)c1cc(=O)[nH]c2ccc(S(=O)(=O)N3CCCCC3)cc12 | -0.4 | -13
CCOc1ccc(N(CC)C(=O)Cn2cnc3sc(C)c(S(=O)(=O)N4CCN(c5ncccn5)CC4)c3c2=O)cc1 | -0.8 | 3
CC1CCn2c(nc3cc(C(=O)NCc4ccc(OC(C)C)cc4)ccc32)C1 (stereo not given) | 1.9 | -7
COC(=O)c1cc2sc(Cl)cc2n1Cc1nc(-c2ccccc2C)oc1C | -0.5 | -12
COc1cc(NS(=O)(=O)c2ccc3[nH]c4c(c3c2)CCCC4)cc(OC)c1OC | 6.0 | 8
COc1cc(C(=O)NCC(c2cccnc2)N2CCc3ccccc3C2)cc(OC)c1OC (stereo not given) | -0.5 | 3
CC(C)CCNC(=O)c1nn(C)c2c1CSc1ccccc1-2 | 3.5 | 32
Cc1ccnc(NS(=O)(=O)c2ccc(NC(=O)c3ccc(C)c(C)c3)cc2)n1 | -0.6 | 8
COC(=O)Cn1c(=NC(=O)c2ccc3c(c2)OCCO3)sc2ccccc21 | -0.7 | -6

# Later entries
smiles | TRPML1 agonist | TRPML1 blocker
CC(C)(C)OC(=O)N1CCC(c2c(C(=O)NCc3ccco3)cnn2-c2ccc(F)cc2)CC1 | -0.1 | ?
O=c1cc(-c2ccc(F)cc2)nc(SCc2nc(-c3ccc(Cl)cc3)no2)[nH]1 | 0.9 | 7
CCOC(=O)c1cnc2c(C)c(Cl)ccc2c1NCCc1ccc(OC)c(OC)c1 | 0.3 | 15
CC1CCN(S(=O)(=O)c2ccc3c(c2)CCN3C(=O)Nc2ccc(Br)cc2)CC1 | -0.1 | -11
CCOCCCNC(=O)c1ccc2c(=O)n(CCc3ccccc3)c(=O)[nH]c2c1 | -0.7 | 7
COc1cccc(NC(=O)Nc2cc(-c3cn4cccnc4n3)ccc2OC)c1 | 1.3 | -6
CC(=O)c1ccc(NC(=O)c2cc(-c3ccc4c(c3)OCO4)on2)cc1 | -0.4 | 21
Cc1cccc(C2C=C(c3ccc(C)c(C)c3)Nc3nnnn32)c1 (stereo not given) | 1.2 | 2
CCCn1c(=O)n(-c2ccccc2)c(=O)c2sc3ccccc3c21 | -1.0 | -2
COc1ccc(-n2c(SCc3ccccc3F)nc3c([nH]c4ccccc43)c2=O)cc1OC | 2.8 | -5
O=C(CSc1nnc(-c2ccncc2)n1-c1ccccc1)Nc1ccc(Cl)c(Cl)c1 | -0.4 | -7
COc1ccccc1Nc1nn2c(=O)c3ccc(C(=O)NCc4cccs4)cc3nc2s1 | 3.2 | -27
Cc1ccc(CN2CCC(CNc3ncnc4onc(-c5ccc(F)cc5)c34)CC2)cc1 | 2.1 | 48
CC1CCC(NC(=O)c2ccc(CS(=O)(=O)c3ccc(Cl)cc3)o2)CC1 (stereo not given) | 2.0 | -6
O=C(NCCCN1CCCCC1)c1cc(Sc2ccc(Cl)cc2)nc2ccccc12 | 2.8 | 9
O=C(CSc1nnc(NC(=O)Nc2ccccc2)s1)Nc1cccc(F)c1 | 0.6 | 15
Cc1cccc(-c2nc(S(=O)(=O)c3ccc(F)cc3)c(N3CCN(c4ccccc4)CC3)o2)c1 | 0.4 | 47
COc1ccccc1Nc1nc2ccc(Cl)cc2nc1-n1nc(C)cc1C | -0.2 | 11
COc1ccc(N2C(=O)CSC23C(=O)N(Cc2cccc(F)c2)c2ccccc23)cc1Cl (stereo not given) | 2.9 | 9
Cc1ccc(Cc2nc3ccccc3nc2SCC(=O)NCCc2ccccc2)cc1 | -0.2 | -3
O=C(Nc1ccc2nc(SCC(=O)N3CCOCC3)sc2c1)c1ccc(Cl)cc1 | 1.4 | 34
Cc1ccc(OCC(=O)Nc2ccc(OCc3cc(=O)n4cccc(C)c4n3)cc2)cc1C | 0.6 | -16
Cc1ccc(OCC(=O)N(Cc2ccc(Cl)cc2)CC2CCCO2)cc1C (stereo not given) | 0.2 | 9
Cn1cc(C(=O)N2CCN(c3cccc(Cl)c3)CC2)c(=O)c2cc(S(=O)(=O)N3CCCC3)ccc21 | -0.8 | 2
COc1ccc2nc(NC(=O)c3cc(=O)c4cc(C)cc(C)c4o3)sc2c1 | 0.9 | -14
CC(C)COC(=O)Cn1nnc2sc(-c3ccccc3)cc2c1=O | 1.2 | 1
CCc1ccc(CNC(=O)c2cccc(-n3cnc4cccnc43)c2C)cc1 | 1.3 | -13

# Taken from above:
# Cc1ccc(OCC(=O)Nc2ccc(OCc3cc(=O)n4cccc(C)c4n3)cc2)cc1C @ TRPML1 blocker = -16
# O=C(Nc1ccc2nc(SCC(=O)N3CCOCC3)sc2c1)c1ccc(Cl)cc1 @ TRPML1 blocker = 34
